RE007 growth inh = qHTS Assay for Inhibitors of the HIV-1 protein Vpr; S. pombe RE007 Vpr strain, BacTiter-Glo ATP luminescence, 24 h; control for the full effect not named in the record; AID 651644, 2012; Potency, µM (top dose mostly 92.2 µM), for inactives: top-dose activity change, negative = less growth; 0.21% of 360,000 active; active = well fitted falling curve with a large enough effect; inconclusive = small, poorly fitted or top-dose-only effect; inactive = no such curve, though single readings can be large or run the other way;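 further: on the % scale 0 is the no-effect control and ±100 the full control effect; nearly all actives have a fitted effect of over 50% in size; the assay follows cell death caused by Vpr and the record does not say whether a fall means rescue or toxicity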
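Fission yeast strain RE007, carrying one chromosomally integrated HIV-1 vpr copy, was seeded at OD 0.01 in PMG+AL medium with 23 nL pinned compound. After 24 h at 30 °C and 99% humidity, viability was read by BacTiter-Glo luminescence.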
NS1 inh = qHTS Assay for Inhibitors of Influenza NS1 Protein Function; S. cerevisiae slowed by influenza A NS1, growth recovery by OD600; Potency, µM (top dose mostly 46.1 µM), without a hit: at the highest dose activity, positive = more growth; 0.4% of 270,000 active; AID 2326, 2010; active means well fitted rising curve with a large enough effect; inconclusive means small, poorly fitted or top-dose-only effect; inactive means no such curve, though single readings can be large or run the other way; further: nearly all actives have a fitted effect of over 50% in size
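OD600 was taken as the measure of yeast growth restored by compound in an NS1-expressing S. cerevisiae strain. Cells had been washed out of glucose medium and diluted 1:100 into galactose -URA medium, pH 6.0.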
Cruzain Triton = qHTS Assay for Promiscuous and Specific Inhibitors of Cruzain (with detergent); 0.43% of 200,000 active; Potency, µM, for the others: max response, negative = inhibition, hits mostly inhibitors; AID 1478, 2009; purified cruzain, Z-FR-AMC fluorescence, 0.01% Triton; Cruzipain (Trypanosoma cruzi), P25779;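 further: plate controls were neutral wells for no effect and buffer without enzyme for full effect; nearly all actives have a fitted effect of over 40% in size; top concentration of the series not given in the record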
Target sequence (P25779 123-467 limits assumed): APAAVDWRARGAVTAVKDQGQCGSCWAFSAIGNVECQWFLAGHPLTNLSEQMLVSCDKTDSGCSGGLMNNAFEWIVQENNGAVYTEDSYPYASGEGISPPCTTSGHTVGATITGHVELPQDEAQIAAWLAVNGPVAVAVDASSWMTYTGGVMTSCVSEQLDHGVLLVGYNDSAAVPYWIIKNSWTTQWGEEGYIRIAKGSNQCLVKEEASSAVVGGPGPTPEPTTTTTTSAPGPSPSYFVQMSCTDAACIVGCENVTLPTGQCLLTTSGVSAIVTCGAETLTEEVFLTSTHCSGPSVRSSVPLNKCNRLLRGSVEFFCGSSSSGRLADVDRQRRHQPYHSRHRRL
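Purified cruzain (1.5 nM final) was preincubated with compounds for 15 min at room temperature in 100 mM sodium acetate pH 5.5, 5 mM DTT, 0.01% Triton X-100. Reaction started with 2 uM Z-FR-AMC; AMC fluorescence change over 60 s gave activity.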
Lassa entry inh = qHTS for Inhibitors of binding or entry into cells for Lassa Virus; Potency, µM (doses to about 37.9 µM), inactives show top-dose activity change, negative = inhibition, most hits filed as inhibitors; Lassa virus pseudotype entry inhibition, cell reporter; control for the full effect not named in the record; 1.2% of 300,000 active; active means well fitted inhibition curve with a large enough effect; inconclusive means small, poorly fitted or top-dose-only effect, or effect the other way; inactive means flat fitted curve, though single readings scatter; tested in HEK293 cells; further: on the % scale 0 is the no-effect control and ±100 the full control effect; nearly all actives have a fitted effect of over 50% in size; luciferase read-out
Marburg entry inh = qHTS for inhibitors of binding or entry into cells for Marburg Virus; Marburg virus pseudotyped entry inhibition, cell reporter; control for the full effect not named in the record; about a third of the inactives were read at about 46 µM; Potency, µM (doses to about 37.8 µM), inactives show top-dose activity change, negative = inhibition, usual class: inhibitors; 1.8% of 300,000 active; active = well fitted inhibition curve with a large enough effect; inconclusive = small, poorly fitted or top-dose-only effect, or effect the other way; inactive = flat fitted curve, though single readings scatter; tested in HEK293 cells; about a fifth of its hits are not listed in these tables; further: on the % scale 0 is the no-effect control and ±100 the full control effect; luciferase read-out
StopGo reporter = High Throughput Screening for Foot and Mouth Disease Virus Antivirals; 1.2% of 410,000 active; Potency, µM (titrated, usually from 57.9 µM), for inactives: at the top dose signal change, negative = less light; human cells with a luciferase reporter of 2A StopGo recoding; control for the full effect not named in the record; AID 1159524, 2015; active = well fitted falling curve with a large enough effect; inconclusive = small, poorly fitted or top-dose-only effect; inactive = no such curve, though single readings can be large or run the other way; tested in HEK293T cells; further: on the % scale 0 is the no-effect control and ±100 the full control effect; nearly all actives have a fitted effect of over 45% in size; luciferase light after 4 h
Cruzain noTriton = qHTS Assay for Promiscuous and Specific Inhibitors of Cruzain (without detergent); AID 1476, 2009; 2.3% of 200,000 active; Cruzipain (Trypanosoma cruzi), P25779; purified cruzain, Z-FR-AMC fluorescence, no detergent; Potency, µM, inactives show max response, negative = inhibition, most hits filed as inhibitors;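 further: plate controls were enzyme without inhibitor for no effect and buffer without enzyme for full effect; nearly all actives have a fitted effect of over 40% in size; top concentration of the series not given in the record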
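Detergent-free condition (0.00005% Triton X-100) in acetate buffer pH 5.5 with DTT. 1.5 nM enzyme and compound were pre-mixed 15 min, then 2 uM Z-FR-AMC substrate added; reaction progress from fluorescence change between first and third reads (60 s).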
SARS PLP yeast = qHTS of Yeast-based Assay for SARS-CoV PLP; 0.19% of 330,000 active; S. cerevisiae expressing SARS-CoV PLpro, growth rescue; control for the full effect not named in the record; Potency, µM (top dose mostly 32.9 µM), inactives show top-dose activity, positive = growth rescue; AID 485353, 2010; active means well fitted rising curve with a large enough effect; inconclusive means small, poorly fitted or top-dose-only effect; inactive means no such curve, though single readings can be large or run the other way; further: 0% is about no effect; nearly all actives have a fitted effect of over 55% in size; growth read by luminescence after 48 h
* = called active by the depositor; ? = inconclusive; / = no result given; [ ] = remark or other dose. Unless noted, the call rests on the fitted dose curve; in most records, active means well fitted curve in the direction sought with a large enough effect; inconclusive means small, poorly fitted or top-dose-only effect, or another doubt; inactive means no such curve, though single readings can be large; an effect the other way counts as inactive or inconclusive. Potency means the concentration at half of the fitted maximal effect.

Order of results: Cruzain Triton	Lassa entry inh	Marburg entry inh	NS1 inh	StopGo reporter	RE007 growth inh	Cruzain noTriton	SARS PLP yeast
CCCCSC1=N/C(=C/c2ccsc2)C(=O)N1c1ccccc1
  -7.7%	-2%	0%	-10%	-25%	-3%	5%	22%
COc1ccc(CCNC(=O)Cn2c(=O)oc3ccccc32)cc1OC
  2.7%	5%	13%[46.1 µM]	7%	0%	10%	-2%	-2%
CCn1c(Cn2nnc(-c3ccccc3)n2)nnc1SCC(=O)Nc1cccc(C(C)=O)c1
  -4.3%	0%	-10%	-5%	/	-6%	?	2%
Cn1c(Cn2c(=O)sc3ccccc32)nnc1SCC(=O)Nc1ccc(F)cc1
  -4.5%	/	/	1%	-22%	-11%	-1%	22%
O=C(O)c1ccc(N=C2NC(=O)C(CO)(CO)S2)cc1
  /	/	/	-8%	-2%	3%	/	-8%
Cc1nc(NS(=O)(=O)c2ccccc2)sc1C(=O)N/N=C/c1ccccc1
  /	/	/	3%	51%[activator]	-3%	/	-1%
Cc1ccc(-c2cn3nc(C)c(C)nc3n2)cc1
  -0.8%	?	0.28µM*	-5%	-79%	-11%	-3%	-2%
O=C(COc1ccc(S(=O)(=O)N2CCCCC2)cc1)N1CCCC1
  /	-9%[46.1 µM]	1%[46.1 µM]	-1%	11%	-7%	/	0%
COc1cccc(C2CC(c3c(Cl)cccc3Cl)n3nc(N)nc3N2)c1 (centres undefined)
  -2.2%	/	-1%	-2%	-3%	-2%	3%	-2%
S=c1ncc2[nH]c(=S)[nH]c2[nH]1
  /	10%[46.1 µM]	?	/	1%	0%	/	/
O=C(C1COc2ccccc2O1)N1CCc2ccccc21 (centres undefined)
  -9.1%	12%	-2%	-1%	/	0%	-9%	-10%
CCOc1ccccc1NC(=O)c1sc2nc3c(cc2c1N)CN(Cc1ccccc1)CC3
  -0.2%	15%[46.1 µM]	-9%[46.1 µM]	/	?	/	-4%	/
Cc1cccc(N2CCN(C(=O)c3ccc(NC(=O)C4CCCO4)cc3)CC2C)c1 (centres undefined)
  0.7%	-12%	?	-15%	-3%	7%	28%	2%
OCCN1CCN(CCCc2c3c(cc4c2CCC4)CCC3)CC1
  -1.1%	?	-24%	-3%	-10%	-20%	2%	-12%
CCN(CC)CCn1c(=O)n(-c2ccc(Cl)cc2)c(=O)c2c3c(sc21)CN(C)CC3
  /	/	/	17%	2%	-2%	/	-6%

Record cards (already shown). Screens in order: Cruzain Triton	Lassa entry inh	Marburg entry inh	NS1 inh	StopGo reporter	RE007 growth inh	Cruzain noTriton	SARS PLP yeast
`COc1cccc(C2CC(c3c(Cl)cccc3Cl)n3nc(N)nc3N2)c1` (centres undefined) reads -2.2%	/	-1%	-2%	-3%	-2%	3%	-2%
`CCCCSC1=N/C(=C/c2ccsc2)C(=O)N1c1ccccc1` reads -7.7%	-2%	0%	-10%	-25%	-3%	5%	22%
`O=C(COc1ccc(S(=O)(=O)N2CCCCC2)cc1)N1CCCC1` reads /	-9%[46.1 µM]	1%[46.1 µM]	-1%	11%	-7%	/	0%
`Cn1c(Cn2c(=O)sc3ccccc32)nnc1SCC(=O)Nc1ccc(F)cc1` reads -4.5%	/	/	1%	-22%	-11%	-1%	22%
`CCN(CC)CCn1c(=O)n(-c2ccc(Cl)cc2)c(=O)c2c3c(sc21)CN(C)CC3` reads /	/	/	17%	2%	-2%	/	-6%

The main list resumes; the two compounds before the break are reprinted first.
Order of results: Cruzain Triton	Lassa entry inh	Marburg entry inh	NS1 inh	StopGo reporter	RE007 growth inh	Cruzain noTriton	SARS PLP yeast
OCCN1CCN(CCCc2c3c(cc4c2CCC4)CCC3)CC1
  -1.1%	?	-24%	-3%	-10%	-20%	2%	-12%
CCN(CC)CCn1c(=O)n(-c2ccc(Cl)cc2)c(=O)c2c3c(sc21)CN(C)CC3
  /	/	/	17%	2%	-2%	/	-6%
CNc1nc(Cl)nc2ncn(C)c12
  /	23%	24%	/	-3%	16%	/	/
Cc1cccc(NC(=O)CN2CCN(C(=O)c3ccc(-c4nc5ccccc5s4)o3)CC2)c1C
  /	?	?	/	-9%	0%	/	/
CCc1ccc(OCCn2cccn2)cc1
  /	12%	?	/	59%[activator]	5%	/	1%
CCc1ccccc1NC(=O)CSc1nc2c(c(-c3ccco3)c1C#N)CCCC2
  -6.6%	4%	-7%	0%	9%	0%	-17%	-3%
Cc1cc(C)nc(-n2nc(C)c3c2N(Cc2ccccc2F)C(=O)CC3c2ccc(Cl)cc2)n1 (centres undefined)
  -6.4%	3%[46.1 µM]	?	/	-5%	/	?	/
CCc1ccc(C(=O)CCC2CCCCC2=O)cc1 (centres undefined)
  -0.6%	9%	17%	6%	41%[activator]	0%	4%	-3%
O=C(Cn1c(=O)oc2ccccc21)Nc1ccc(Cl)cc1
  /	/	/	12%	14%	2%	/	4%
COc1cc(OC)cc(-n2c(=O)c3sccc3n(Cc3ccc(F)cc3)c2=O)c1
  -0.6%	2%[46.1 µM]	-27%[46.1 µM]	/	-23%	/	-1%	/
Cn1c(=O)c(=O)n(C)c2cc(N3CCCCC3)c(NS(=O)(=O)c3ccc(Br)cc3)cc21
  /	/	/	?	7%	9%	/	-7%
O=C(OCc1ccc(F)cc1)c1ccc2ccccc2n1
  /	6%	15%[46.1 µM]	/	62%[activator]	0%	/	-1%
CC(=O)Nc1ccc(NC(=O)CCCCCn2nnc3ccccc3c2=O)cc1
  /	5%[46.1 µM]	-4%[46.1 µM]	0%	-8%	12%	/	2%
CCOC(=O)c1cc(-c2ccc(F)cc2)n(CCC(=O)NCc2ccccc2OC)c1C
  -9.9%	?	/	/	-9%	/	8%	/
CCn1c(=O)c(C(=O)NNS(=O)(=O)c2ccc(C)cc2)c(O)c2ccccc21
  -7.1%	-2%	5%	4%	-15%	-6%	0%	-20%
COc1ccc(NC(=O)CNc2cc(S(=O)(=O)N3CCOCC3)ccc2NCC2CCCO2)cc1 (centres undefined)
  /	19%[46.1 µM]	8%[46.1 µM]	/	-3%	8%	/	-1%
CCc1cc(=O)oc2cc(OCC(N)=O)c(Cl)cc12
  -5.2%	14%	21%	2%	3%	-10%	-4%	-3%
CCc1ccc(NC(=O)c2sc3nc(C)c(Cl)c(C)c3c2NC(=O)c2ccccc2OC)cc1
  4.2%	4%[46.1 µM]	-1%[46.1 µM]	/	-7%	/	4%	/
Oc1ccc(Cl)cc1CN1CCN(Cc2ccccc2)CC1
  1.5%	-5%	-21%	-14%	?	18%	0%	0%
CC(C)CCN1C(=O)c2ccc(C(=O)OCn3nnc4ccccc4c3=O)cc2C1=O
  -0.2%	23%	-1%	-8%	15%	8%	?	-2%
CCOC(=O)Cc1csc(NC(=O)COc2cccc(C)c2)n1
  /	?	2%	/	-26%	2%	/	6%
Cc1ccnc(NS(=O)(=O)c2ccc(NC(=O)/C=C/c3ccccc3)cc2)n1
  /	8%	8%	-2%	13%	5%	/	-5%
O=C(/C=C/c1ccco1)N1CCN(S(=O)(=O)c2ccc(F)c(F)c2F)CC1
  /	?	27%	/	-14%	14%	/	0%
Cc1ccc(S(=O)(=O)N2CN(CC3CCCO3)c3nc4ccccc4nc32)c(C)c1 (centres undefined)
  /	/	/	19%	-5%	-13%	/	12%
C=CCC1c2cccc(C(=O)O)c2C(=O)N1c1cccc(C)c1 (centres undefined)
  1.6%	-13%	-8%	-104%	/	-11%	6%	1%
CCOC(=O)CSc1nc(-c2ccccc2)cc(C(F)(F)F)c1C#N
  -1.2%	11%[46.1 µM]	-3%[46.1 µM]	/	-20%	/	0%	/
COc1ccccc1NC(=O)CN(Cc1ccco1)C(=O)c1cccs1
  2.3%	?	-18%	-2%	-10%	0%[3.69 µM]	-14%	1%
CCCCNC(=O)CCc1nc2cccnc2n1Cc1ccccc1
  /	/	0%	0%	-4%	0%	/	-4%
Cc1nc(N(CCO)C2CCCCC2)c2nnn(Cc3ccccc3)c2n1
  /	-10%[46.1 µM]	10µM*	-30%	-18%	12%	/	-2%
CCOc1ccccc1NC(=O)CN(c1ccc(C)cc1)S(=O)(=O)c1c(C)n[nH]c1C
  -8.5%	?	?	-11%	-8%	9%	?	-4%
CCOC(=O)C1(C)Oc2ccccc2C(c2ccc(OC)cc2)=C1C(=O)OC (centres undefined)
  0.7%	/	/	/	-26%	-12%	?	-17%
Cc1cc(Nc2ccc3c(c2)OCCO3)n2nc(C)nc2n1
  -0.6%	/	/	2%	4%	6%	-3%	-3%
O=C(Nc1ccccc1N1CCOCC1)C1CCN(S(=O)(=O)c2ccc(F)cc2)CC1
  -1.2%	0%	1%	-1%	-26%	8%	1%	8%
CC(C)c1ccc(-c2cc(C(=O)NN3CCN(C)CC3)c3ccccc3n2)cc1
  -7.3%	?	?	-4%	7%	6%	-7%	-2%
Cc1cccc(Cc2c(C)nc3nc(SCc4ccccc4C)nn3c2C)c1
  -0.6%	3%[46.1 µM]	/	/	-9%	/	-11%	/
CCOC(=O)C1CCN(CCC(=O)Nc2ccc(C)c(C)c2)CC1
  /	/	/	-3%	-7%	0%	/	0%
Cc1nc(C(F)(F)F)ccc1C(=O)Nc1ccccc1N1CCOCC1
  /	/	/	-9%	10%	4%	/	5%
COCCn1c(=O)c2c(nc3n2CCCN3CCc2ccc(OC)c(OC)c2)n(C)c1=O
  /	16%[46.1 µM]	-24%[46.1 µM]	1%	-21%	-10%	/	0%
